# Screening results (PubChem BioAssay)
# TRPML1 agonist = qHTS for Agonists of the Human Mucolipin Transient Receptor Potential 1 (TRPML1). AID 624414, 2012. 410,000 tested, 0.12% active. Mucolipin-1 (Homo sapiens), Q9GZU1. activation, % (test concentration not listed). TRPML1-expressing cells, Ca2+ dye fluorescence, FDSS; host cell line not named in the record; reference of the full effect not given here; in the data active = activation above about 50%; inconclusive = about 30% to 50%; inactive = below about 30%; note: 0% is about no effect; the text of the record puts the active cut at 80%
# Target sequence (Q9GZU1 whole entry, looked up): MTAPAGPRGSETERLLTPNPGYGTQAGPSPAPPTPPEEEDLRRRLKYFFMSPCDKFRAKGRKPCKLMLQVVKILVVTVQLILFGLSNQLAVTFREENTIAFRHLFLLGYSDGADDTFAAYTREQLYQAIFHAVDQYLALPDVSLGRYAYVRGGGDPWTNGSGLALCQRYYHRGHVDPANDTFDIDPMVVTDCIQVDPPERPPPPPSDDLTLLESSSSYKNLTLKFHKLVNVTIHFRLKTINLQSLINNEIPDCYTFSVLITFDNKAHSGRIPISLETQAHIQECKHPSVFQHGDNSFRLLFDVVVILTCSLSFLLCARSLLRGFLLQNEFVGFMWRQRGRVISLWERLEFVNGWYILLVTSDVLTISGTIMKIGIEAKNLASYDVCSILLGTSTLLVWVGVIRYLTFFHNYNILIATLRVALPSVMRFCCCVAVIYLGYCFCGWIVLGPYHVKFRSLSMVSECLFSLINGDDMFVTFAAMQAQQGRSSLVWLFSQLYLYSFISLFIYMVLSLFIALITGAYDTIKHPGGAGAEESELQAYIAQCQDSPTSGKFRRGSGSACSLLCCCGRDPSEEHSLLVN
#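 Agonist activity was taken from a 110 s kinetic Ca2+ dye read on the FDSS after pinning compounds onto TRPML1-DL cells. The cells were seeded at 1,500/well with Tet inducer, incubated about 16 h, then dye-loaded at room temperature.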
# Six1-Eya2 blk = qHTS Assay for Inhibitors of the Six1/Eya2 Interaction; Homeobox protein SIX1 (Homo sapiens) + Protein phosphatase EYA2 (Homo sapiens), …; AlphaScreen GST-Six1/His-Eya2 binding, biochemical; stronger effect = lower value; control for the full effect not named in the record; activity change, % (concentration not given with the values); 360,000 tested, 0.56% active; AID 651725, 2012; in the data active = activity change below about -65%; inconclusive = about -30% to -65%; inactive = above about -30%; note: % is set by controls: 0 for no effect and ±100 for the full control effect
#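 Homogeneous AlphaScreen proximity assay pairing GST-Six1 with His-tagged Eya2 (added as 5X mix: 250 nM and 500 nM) in 50 mM Tris pH 8.0, 300 mM NaCl, 1 mM TCEP. Glutathione donor and nickel acceptor beads; 1 h, 37 °C, dark.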
# CtBP-E1A inh = qHTS Assay for Inhibitors of the CtBP/E1A Interaction | 340,000 tested, 0.49% active | activity change, % (no concentration beside the values) | CtBP / adenovirus E1A interaction (AlphaScreen) | AlphaScreen GST-E1A/His-CtBP binding, 1536-well; stronger effect = lower value; control for the full effect not named in the record | AID 651724, 2012; in the data active means activity change below about -65%; inconclusive means about -30% to -65%; inactive means above about -30%; note: % is set by controls: 0 for no effect and ±100 for the full control effect; compound concentration not given in the record
#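 In 5 uL wells, 23 nL compound meets equimolar GST-E1A and His-CtBP (5X stock 125 nM each) for 2 h, 37 °C. Beads (5X, 50 ug/mL) then 1 h, 37 °C, dark.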
# D2 potentiator = Beta-Arrestin HTS for Positive Allosteric Modulators of the Human D2 Dopamine Receptor: Potentiators. AID 624464, 2012. D(2) dopamine receptor (Homo sapiens), P14416. potentiation, % (concentration not given with the values). DiscoveRx D2 beta-arrestin cells, luminescence, 90 min; 100% = 57 uM dopamine signal. 360,000 tested, 0.23% active; active = potentiation of 50% or more; inconclusive = 30% to 50%; inactive = 30% or less;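 note: compound concentration not given in the record; tested on top of an EC20 dose of dopamine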
# Target sequence (P14416 whole entry, looked up): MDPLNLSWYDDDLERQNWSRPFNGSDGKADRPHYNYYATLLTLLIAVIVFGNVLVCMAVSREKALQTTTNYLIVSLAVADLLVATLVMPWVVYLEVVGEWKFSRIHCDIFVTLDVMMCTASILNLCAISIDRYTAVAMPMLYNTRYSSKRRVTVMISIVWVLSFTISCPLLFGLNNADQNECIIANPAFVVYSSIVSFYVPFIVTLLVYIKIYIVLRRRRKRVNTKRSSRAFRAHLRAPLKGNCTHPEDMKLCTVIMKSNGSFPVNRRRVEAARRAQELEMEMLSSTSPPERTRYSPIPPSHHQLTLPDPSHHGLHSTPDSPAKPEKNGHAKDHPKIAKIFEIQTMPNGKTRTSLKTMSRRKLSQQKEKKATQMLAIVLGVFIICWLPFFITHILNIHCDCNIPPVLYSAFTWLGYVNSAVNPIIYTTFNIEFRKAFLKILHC
#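 PathHunter beta-arrestin assay in DiscoveRx D2 cells. Compounds were added with an EC20 of dopamine (50 nM final) for 90 min at 37 deg C. Luminescence was read 1 h after detection reagent, with 57 uM dopamine as the EC100 control.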
# D2 agonist = Beta-Arrestin HTS for Positive Allosteric Modulators of the Human D2 Dopamine Receptor: Agonists | AID 624465, 2012 | 360,000 tested, 0.084% active | activation, % (no concentration beside the values) | DiscoveRx PathHunter D2 beta-arrestin, luminescence, 90 min; 100% = 57 uM dopamine signal; in the data active = activation above about 40%; inconclusive = about 15% to 40%; inactive = below about 15%; note: compound concentration not given in the record; the text of the record calls up to 30% inactive
#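 DiscoveRx PathHunter D2 beta-arrestin cells (2,100/well) attached overnight, then compound-stimulated 90 min at 37 C in HBSS/10 mM HEPES/0.1% Tween-20 buffer; beta-galactosidase complementation read by luminescence after 1 h at ambient temperature. Dopamine 57 uM final (EC100) as control.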
# PINK1 expr mod = A Quantitative High throughput Screen to Identify Chemical Modulators of PINK1 Expression; PINK1 immunofluorescence, high-content cytometry, 24 h; Potency, µM (titrated, usually from 76.6 µM), inactives show at the top dose activation (PINK1 increase), most hits filed as activators; 410,000 tested, 0.2% active; active = well fitted activation curve with a large enough effect; inconclusive = small, poorly fitted or top-dose-only effect; inactive = flat fitted curve, though single readings scatter; cell line not stated here;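 note: potency is the fitted concentration of half-maximal effect; % of control where 0% means no effect; nearly all actives have a fitted effect of over 65% in size; a mitochondrial uncoupler was the plate control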
#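 PINK1 protein, normally rapidly degraded, was detected by immunofluorescence after 24 hour compound treatment of a stable cell line. Titration data (5 concentrations) came from laser-scanning cytometry, with CCCP-treated wells as controls.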
# An asterisk follows results filed as active; ? = inconclusive; nt = no result given; & = joins results of further samples; [ ] = remark or other dose.
# Value order – TRPML1 agonist	Six1-Eya2 blk	CtBP-E1A inh	D2 potentiator	D2 agonist	PINK1 expr mod
O=c1ccccn1CCOc1ccc(Cl)cc1
  2.3	1	4	0	-0.9	0.2%
Cc1cc(C(=O)O)ccc1-n1c(C)cc(/C=C2\SC(=O)NC2=O)c1C
  -0.5	-13	-10	-1	3.1	2.7%
COc1cc(C)c(COc2ncnc3ccccc23)cc1OC
  0.8	-3	-2	3	-4.4	0.3%
O=C(NC(c1ccccc1)c1ccsc1)C1CCN(Cc2ccc(Oc3ccccc3)cc2)CC1 (configuration not stated)
  -0.2	-12	-11	-14	-1.4	1.0%
C=CCNC(=O)c1onc(CSc2ccc(F)cc2)c1C(=O)O
  -0.4	-2	0	2	2.5	1.2%
COc1ccc(C2=NN(C3=NN=C(N)Cc4ncnn43)C(O)(C(F)(F)F)C2)cc1 (configuration not stated)
  0.6	-68*	-86*	-5	-8.3	-0.2%
CCOc1ccc2nc(SC(CC)C(=O)Nc3cc(C)on3)sc2c1 (configuration not stated)
  3.7	3	-3	4	3.3	3.3%
COc1ccc(C(=O)NC(=S)NC(C)c2ccccc2)cc1 (configuration not stated)
  4.1	-11	-14	0	0.2	0.4%
CCOc1ccccc1C(=O)Nc1ccsc1C(=O)OC
  0.8	13	9	-4	1.3	12%
O=C(COC(=O)c1ccco1)NCc1cccs1
  0.0	23	22	-14	-3.6	3.4%
COc1cccc(CN2CCC(C(=O)N3CCN(c4ccccc4F)CC3)CC2)c1
  0.8	3	0	-10	1.8	-0.4%
OC[C@@H]1[C@@H](c2ccccc2)C(c2ccc(F)cc2)=NN1c1ccccc1
  -1.3	45	43	8	-0.4	16%
CCC(=Nc1ccc(N)cc1)C1=C(O)C(C(=O)OC)C(C)(C)CC1=O (configuration not stated)
  1.7	-20	7	?	5.1	nt
COC(=O)C1=C(C)N(Cc2ccco2)C(=O)N[C@@H]1c1ccccc1
  -0.5	4	-7	-43	-0.9	0.6%
CN(Cc1ccccc1)c1ncnc2c1cnn2-c1ccccc1
  1.6	14	10	11	0.5	16%[38.3 µM]
CCOC(=O)C1CCCN(c2ncnc3c2cnn3-c2ccc(OC)cc2)C1 (configuration not stated)
  0.0	0	-2	-17	-3.1	4.0%
Cc1nn2c(=O)cc(COC(=O)c3c(F)cccc3Cl)nc2s1
  -0.3	6	3	-2	3.8	0.0%
O=C(N/N=C/c1cccc(O)c1)c1ccc(-n2cnnn2)cc1
  -0.4	-4	8	0	-2.5	5.9%
O=C(Nc1ccc(NC(=O)C2CC2)cn1)c1ccccc1Cl
  -0.8	-1	-2	2	-1.9	-0.7%
NNC(=O)CNC(=O)c1ccc(F)cc1
  -0.6	5	0	-9	-4.2	1.1%
O=C(NNc1ccccc1[N+](=O)[O-])Nc1cccc(Cl)c1
  1.7	-15	nt	-15	1.2	1.1%
O=C(CCCN1C(=O)c2cccnc2C1=O)Nc1ccc(F)cc1Cl
  1.0	-4	-6	4	8.3	0.4%
Cc1ccc(/C=C/C(=O)Nc2cc(S(=O)(=O)N3CCCCCC3)ccc2OCC(F)(F)F)o1
  1.5	-2	5	-1	2.1	7.0%
CC(C)(C)NC(=O)CSc1nnc(C2CC2)n1-c1ccccc1
  0.0	-3	0	2	-0.1	-0.3%
C[C@H](c1ccccc1)N1C[C@H](COCc2ccccc2)Oc2cc(N3CC[C@@H](N(C)C)C3)ccc2S1(=O)=O
  -0.6	-8	1	nt	nt	1.4%
CCSc1ccccc1C(=O)NCc1ccc(OC)cc1
  2.4	7	22	1	-4.0	-3.1%[38.3 µM]
CCCN1C(=O)c2ccc(C(=O)Nc3ccccc3C(=O)O)cc2C1=O
  2.7	-7	-16	7	4.3	4.5%
COCCN(C(=O)COC(=O)c1ccccc1Oc1ccccc1)c1c(N)n(Cc2ccccc2)c(=O)[nH]c1=O
  0.4	9	-13	-26	-3.6	2.4%
Cc1ccc(S(=O)(=O)Oc2ccc(/C=C(/NC(=O)c3ccccc3)C(=O)NCCC(=O)O)cc2)cc1
  0.2	3	2	-3	-2.6	3.1%
O=C1c2cccc3cc(Br)cc(c23)C(=O)N1Nc1ccccc1
  0.4	-14	-17	2	-3.7	-1.7%

# Among those listed so far, three contain a thiophene ring, fused or not:
# Value order – TRPML1 agonist	Six1-Eya2 blk	CtBP-E1A inh	D2 potentiator	D2 agonist	PINK1 expr mod
O=C(NC(c1ccccc1)c1ccsc1)C1CCN(Cc2ccc(Oc3ccccc3)cc2)CC1 (configuration not stated)
  -0.2	-12	-11	-14	-1.4	1.0%
CCOc1ccccc1C(=O)Nc1ccsc1C(=O)OC
  0.8	13	9	-4	1.3	12%
O=C(COC(=O)c1ccco1)NCc1cccs1
  0.0	23	22	-14	-3.6	3.4%

# Next section
# Value order – TRPML1 agonist	Six1-Eya2 blk	CtBP-E1A inh	D2 potentiator	D2 agonist	PINK1 expr mod
c1ccc(-c2cc(-c3ccccc3)n3ncnc3n2)cc1
  0.2	-7	15	-11	-2.1	-2.0%
CCCNC(=O)Cn1cnc2sc(C(=O)N3CCCC(C(=O)OCC)C3)c(C)c2c1=O (configuration not stated)
  -0.4	-8	14	2	1.2	-2.4%
O=C(O)C1Cc2[nH]cnc2C(c2ccc(F)cc2)N1 (configuration not stated)
  0.3	0	nt	-6	-0.9	0.1%
O=C(Nc1ccc(NC(=S)NC(=O)c2ccco2)cc1)c1ccccc1
  0.3	9	-2	-5	-1.6	8.6%
CN(C)CCN(Cc1cc2cc3c(cc2[nH]c1=O)OCCO3)C(=S)NCC1CCCO1 (configuration not stated)
  -0.2	-8	0	1	1.3	-0.7%
Cn1c(=O)c2c(SCC(=O)N3CCOCC3)nc(-c3ccccc3Cl)nc2n(C)c1=O
  0.2	1	0	-1	-1.5	2.3%
Cc1ccccc1C(=O)NC(=S)NCc1cccnc1
  0.4	5	4	0	1.0	-0.3%
O=S(=O)(NCC(Nc1ccc(Cl)cc1)c1ccccc1)c1ccccc1 (configuration not stated)
  3.8&2.1	-6	2	0	2.6	?
CCN(CC)CCN(C(=O)CCS(=O)(=O)c1ccccc1)c1nc2cc(C)cc(C)c2s1
  -0.3	4	24	-22	0.8	-1.9%
O=C(NCc1ccc2c(c1)OCO2)c1ccc(S(=O)(=O)N2CCCCC2)cc1
  -0.2	-1	4	0	-3.0	nt
CCn1cnc2cc(NC(=O)c3ccco3)ccc21
  1.2	3	3	5	-0.4	0.7%
COC(=O)c1ccc2c(=O)[nH]c(CN3c4ccccc4CC3C)nc2c1 (configuration not stated)
  -0.8	-11	-5	12	0.9	2.1%
COc1cccc(-c2c(C(=O)N/N=C/c3ccc(C)o3)nnn2-c2nonc2N)c1
  0.4	-6	-11	-6	-3.7	-1.4%
Cc1ccc(S(=O)(=O)N2CCC(C(=O)OCC(=O)Nc3cc(S(C)(=O)=O)ccc3Cl)CC2)cc1C
  -0.6	3	4	13	-0.3	0.5%
O=C(N/N=C/c1ccccc1C(=O)O)c1ccncc1
  -0.1	6	0	-1	1.0	-0.2%
CCCCC(=O)Nc1cc(NC(=O)CC)ccc1Cl
  -0.1	0	2	-5	-5.2	-2.2%
Cc1ccccc1-n1c(SCC(=O)Nc2ccccc2)nc2nc3c(cc2c1=O)CCCC3
  0.0	-20	7	-11	1.1	-0.4%
COc1ccc(-c2nc(CS(=O)CC(=O)NC3CCCC3)c(C)o2)cc1OC (configuration not stated)
  0.4	4	nt	-10	-4.8	0.9%
O=C1N(Cc2cccc(Cl)c2)C[C@@H]2C[C@@H](c3ccco3)N3CCC[C@@]123
  -0.8	0	2	0	-0.4	-0.3%
Cc1ccc(S(=O)(=O)N2CCC(C(=O)OCC(=O)NC(C)c3ccc(F)cc3)CC2)cc1C (configuration not stated)
  0.1	1	7	-1	-1.7	0.6%
O=C(COC(=O)c1ccc2ccccc2c1O)Nc1ccccc1
  1.3	9	-2	-30	1.7	0.7%
Cc1c(NS(=O)(=O)CC23CCC(CC2=O)C3(C)C)c(=O)n(-c2ccccc2)n1C (configuration not stated)
  0.0	19	0	-6	-1.1	-1.3%
COC(=O)C=C1CCC2C3CCC4=CC(=O)CCC4(C)C3C(=O)CC12C (configuration not stated)
  -0.7	3	0	2	-2.0	-2.0%
CCC(=O)Nc1ccc(C(=O)Nc2cccc(OC)c2)cc1
  1.7	-3	0	-3	1.3	0.7%
C=CCSc1nc(C)cc(C(=O)OCC)c1C#N
  3.2	36	6	2	-0.5	0.5%
COc1ccc(C2Nc3ccccc3NC3=C2C(=O)CC(C)(C)C3)c(OC)c1OC (configuration not stated)
  -0.4	-4	3	-8	2.9	-0.3%
Cc1cccc(-c2cc3c(N=O)c4ccccc4c-3n[nH]2)c1
  0.8	1	2	-10	-1.2	5.9%
CS(=O)(=O)NCCNc1ccc(Cl)cc1[N+](=O)[O-]
  1.1	2	nt	-9	-7.8	2.9%
CCOC(=O)c1cnc2c(-c3ccccc3)cnn2c1N
  0.4	4	-4	-5	-3.5	-0.5%
CN(C)C(=O)CSc1nnc(-c2cccnc2)n1-c1ccccc1
  0.3	6	2	-5	-2.6	0.5%
O=C(CCN1C(=O)C2C3C=CC(C3)C2C1=O)N1CCN(c2cccc(Cl)c2)CC1 (configuration not stated)
  -0.5	-11	-5	4	0.6	6.7%
O=C(O)CSc1nc(C(F)(F)F)cc(=O)n1-c1ccccc1
  -0.1	0	6	-5	-3.6	0.7%
CCOC(=O)C(C)NC(=O)C(NC(=O)C1CCC(CC)CC1)C(C)C (configuration not stated)
  -0.4	-1	12	-6	-0.2	-1.6%
O=C1NC[C@H](CCCCN2CCN(Cc3ccccc3)C(=O)C2=O)N(CC2CCCCC2)C1=O
  0.1	2	1	nt	nt	2.8%
CC(C)(C)OC(=O)NCCNC(=O)c1cccs1
  -0.1	9	2	-10	-4.7	0.0%
CN1C(=O)[C@@H]2[C@H](C1=O)[C@@H]1C(=O)Nc3ccccc3C(=O)N1[C@@H]2c1cccc(Br)c1
  -0.3	-1	1	-7	-1.6	0.9%
Cc1nnc(SCC(=O)N(C2CCCCC2)C2CCS(=O)(=O)C2)n1C (configuration not stated)
  0.1	6	2	-2	-0.7	1.2%
NC(=O)/C(=C/c1ccco1)C(N)=S
  0.4	0	-1	-2	2.2	-0.9%
O=C(CCN1C(=O)C2C3CCC(C3)C2C1=O)Nc1ccc(Br)cc1 (configuration not stated)
  -0.1	-4	8	-20	-5.1	9.7%
